Screening data: PubChem, National Center for Advancing Translational Sciences (NCATS)
Vaccinia Venus: qHTS for Stage-Specific Inhibitors of Vaccinia Orthopoxvirus: Venus Reporter Primary qHTS. Vaccinia virus Venus reporter expression, fluorescence. Potency, µM (top dose mostly 36.5 µM), for the others: at the highest dose activity change, negative = inhibition, actives largely listed as inhibitors. hit rate 0.46% among 330,000. AID 720580, 2013; active means well fitted inhibition curve with a large enough effect; inconclusive means small, poorly fitted or top-dose-only effect; inactive means no such curve, though single readings can be large or run the other way; tested in A549 cells; also: nearly all actives have a fitted effect of over 30% in size; inactives centre near -10
VACV mCherry inh: qHTS for Stage-Specific Inhibitors of Vaccinia Orthopoxvirus: mCherry Reporter Primary qHTS; Vaccinia virus mCherry reporter infection, fluorescence; about a quarter of the inactives have no number; Potency, µM (highest dose often 36.5 µM), inactives show at the top dose activity change, negative = inhibition, hits mostly inhibitors; hit rate 0.63% among 310,000; active = well fitted inhibition curve with a large enough effect; inconclusive = small, poorly fitted or top-dose-only effect; inactive = no such curve, though single readings can be large or run the other way; tested in A549 cells; also: nearly all actives have a fitted effect of over 35% in size; inactives centre near -10
The depositor's hits bear a star; i = inactive; ? = inconclusive; nt = no result given; [ ] = another dose, or the depositor's remark. % is scaled to controls: 0 for no effect and ±100 for the full control effect; potency is read from the fitted curve at half-maximal effect.

A first look:
SMILES	Vaccinia Venus	VACV mCherry inh
C[C@H](CO)N1C[C@H](C)[C@@H](CN(C)C(=O)Nc2ccc3c(c2)OCO3)Oc2ccc(NC(=O)Cc3ccccc3)cc2C1=O	-13.7%	-0.8%
Cc1ccc(N(C(=O)CC2NC(=O)NC2=O)C2(C(=O)NC3CCCC3)CCCCC2)cc1 (configuration not stated)	-22.5%	?
COc1ccc(CNS(=O)(=O)c2c(C)[nH]c(C)c2C(=O)N2CCCC2)cc1	-2.2%[7.34 µM]	-13.5%[7.34 µM]
O=C(Nc1cccnc1)c1cc(-c2ccc(Br)cc2)on1	-10.7%	5.1%

Results, from the start:
SMILES	Vaccinia Venus	VACV mCherry inh
C[C@H](CO)N1C[C@H](C)[C@@H](CN(C)C(=O)Nc2ccc3c(c2)OCO3)Oc2ccc(NC(=O)Cc3ccccc3)cc2C1=O	-13.7%	-0.8%
Cc1ccc(N(C(=O)CC2NC(=O)NC2=O)C2(C(=O)NC3CCCC3)CCCCC2)cc1 (configuration not stated)	-22.5%	?
COc1ccc(CNS(=O)(=O)c2c(C)[nH]c(C)c2C(=O)N2CCCC2)cc1	-2.2%[7.34 µM]	-13.5%[7.34 µM]
O=C(Nc1cccnc1)c1cc(-c2ccc(Br)cc2)on1	-10.7%	5.1%
CC(C)OCCCNC(=O)c1c(N)n(CC2CCCO2)c2nc3ccccc3nc12 (configuration not stated)	-11.7%	i
CO[C@@H]1CN(C)C(=O)c2ccc(NC(C)=O)cc2OC[C@@H](C)N(C(=O)NC2CCCCC2)C[C@H]1C	-1.4%	-3.3%
CCSc1ccc(C(=O)Nc2cccc(C)n2)cc1[N+](=O)[O-]	1.5%	24.1%
Cc1c(O)ccc(C(=O)COc2ccc(F)cc2)c1O	?	nt
O=C(NCCCCc1ccccc1)c1cccc(NC(=O)C2CCCCC2)c1	?	i
Cc1ccc(CSCCC(=O)N2CCN(c3ccc(F)cc3)CC2)cc1	-9.6%	-15.7%
Cc1cc(CNC(=O)c2cccc([N+](=O)[O-])c2)c2ccccc2n1	-18.7%	-1.2%
Cc1nc(/C=C/c2ccccc2)[nH]c(=O)c1-c1ccccc1	?	?
CCCOc1ccc(/C(O)=C2\C(=O)C(=O)N(c3ccccn3)C2c2ccccc2F)cc1C (configuration not stated)	-4.9%	-26.5%
CC(=O)N1CCOc2ccc(S(=O)(=O)N3CCN(c4cc(C)ccc4C)CC3)cc21	-6.5%[7.34 µM]	-13.3%[7.34 µM]
O=C(CSc1n[nH]c(=O)[nH]c1=O)c1ccc([N+](=O)[O-])cc1	-5.7%	i
CCc1ccccc1NC(=O)CSc1ncccc1C(=O)O	-6.7%	-0.7%
CN(C)/C=C1\SC(=S)N(N2C(=O)C3C4C=CC(C4)C3C2=O)C1=O (configuration not stated)	7.2%	9.5%
COC(=O)Cn1cnc2sc3c(c2c1=O)CCCC3	1.5%	5.8%
O=S(=O)(c1cccc(F)c1)N1CCc2sccc2C1c1ccc(OC(F)(F)F)cc1 (configuration not stated)	-20.7%	-29.7%
C=CCNCCOCCOc1ccc(C)cc1Br	?	?

16 compounds from above, sorted by molar mass, largest number first.
SMILES	Vaccinia Venus	VACV mCherry inh
O=S(=O)(c1cccc(F)c1)N1CCc2sccc2C1c1ccc(OC(F)(F)F)cc1 (configuration not stated)	-20.7%	-29.7%
CCCOc1ccc(/C(O)=C2\C(=O)C(=O)N(c3ccccn3)C2c2ccccc2F)cc1C (configuration not stated)	-4.9%	-26.5%
Cc1ccc(N(C(=O)CC2NC(=O)NC2=O)C2(C(=O)NC3CCCC3)CCCCC2)cc1 (configuration not stated)	-22.5%	?
CC(=O)N1CCOc2ccc(S(=O)(=O)N3CCN(c4cc(C)ccc4C)CC3)cc21	-6.5%[7.34 µM]	-13.3%[7.34 µM]
COc1ccc(CNS(=O)(=O)c2c(C)[nH]c(C)c2C(=O)N2CCCC2)cc1	-2.2%[7.34 µM]	-13.5%[7.34 µM]
O=C(NCCCCc1ccccc1)c1cccc(NC(=O)C2CCCCC2)c1	?	i
Cc1ccc(CSCCC(=O)N2CCN(c3ccc(F)cc3)CC2)cc1	-9.6%	-15.7%
CN(C)/C=C1\SC(=S)N(N2C(=O)C3C4C=CC(C4)C3C2=O)C1=O (configuration not stated)	7.2%	9.5%
O=C(Nc1cccnc1)c1cc(-c2ccc(Br)cc2)on1	-10.7%	5.1%
Cc1cc(CNC(=O)c2cccc([N+](=O)[O-])c2)c2ccccc2n1	-18.7%	-1.2%
CCSc1ccc(C(=O)Nc2cccc(C)n2)cc1[N+](=O)[O-]	1.5%	24.1%
CCc1ccccc1NC(=O)CSc1ncccc1C(=O)O	-6.7%	-0.7%
C=CCNCCOCCOc1ccc(C)cc1Br	?	?
O=C(CSc1n[nH]c(=O)[nH]c1=O)c1ccc([N+](=O)[O-])cc1	-5.7%	i
Cc1nc(/C=C/c2ccccc2)[nH]c(=O)c1-c1ccccc1	?	?
COC(=O)Cn1cnc2sc3c(c2c1=O)CCCC3	1.5%	5.8%

New compounds follow:
SMILES	Vaccinia Venus	VACV mCherry inh
O=C(CCC1N=C2c3ccccc3N=C(SCc3cccc(F)c3)N2C1=O)NC1CCCCC1 (configuration not stated)	-20.1%	-21.7%
O=C(N/N=C/c1[nH]c2ccccc2c1Cl)c1cccc(Br)c1	0.0%	-10.1%
CCCN(CCC)C(=O)c1c[nH]c2ccc(S(=O)(=O)N(C)c3ccc(Cl)cc3)cc2c1=O	-9.0%	-12.7%
O=C(N/N=C/C=C/c1ccc([N+](=O)[O-])cc1)c1cccs1	-9.3%	-0.4%
CCN(CC(=O)NCc1ccc(F)cc1)C(=O)/C=C/c1ccc(S(=O)(=O)N(CC)CC)cc1	-9.5%	-11.9%
Cc1occc1C(=O)Nc1ccc2ccccc2c1	-19.5%	i
CN(C)CCCNC(=S)N1CCN(c2nc(-c3ccccc3)cs2)CC1	?	-27.2%
COC(=O)Cc1cc(=O)[nH]c(/N=C(\N)Nc2ccc(C)cc2)n1	-7.1%	-9.7%
COc1ccc(C(=O)Nc2ccc(N3CCN(C(=O)c4ccccc4C)CC3)cc2)cc1	-17.7%	i
O=C(CCC(=O)N1CCOc2ccccc21)NCCCN1CCOCC1	-6.7%	i
O=C(NNc1ccccn1)C(c1ccccc1)c1ccccc1	-9.5%	-16.0%
CCc1ccc(C(=O)COC(=O)CNC(=O)CNS(=O)(=O)c2ccccc2)cc1	-4.1%	-13.0%
CC(=O)N1CCN(S(=O)(=O)c2cccc(C(=O)Nc3ccccc3N3CCOCC3)c2)CC1	-4.0%	-14.7%
Cc1ccc2c(Cl)cc(Cl)c(OCC(=O)NC3CCS(=O)(=O)C3)c2n1 (configuration not stated)	-12.5%	-15.2%
Cc1ccc(C)n1NC(=O)c1ccc(Cl)cc1Cl	?	nt
N#CCSc1nnc(-c2cccnc2)n1-c1ccccc1	-1.4%	-5.8%
Cc1cc(C)nc(OC(C(=O)O)C(OCCc2ccccc2)(c2ccccc2)c2ccccc2)n1 (configuration not stated)	-23.5%	-27.2%
CCN(CC(=O)Nc1ccc2c(c1)OCCO2)C(=O)/C=C/c1ccccc1	-13.8%	i
CC(=O)N1CCc2ccc(S(=O)(=O)N3CCN(C)CC3)cc21	-2.4%	-8.5%
NC(=O)CSc1nc(C2CC2)nc2sc3c(c12)CCCC3	-15.5%	11.5%
COc1ccc(-n2nc(C(=O)Nc3cccc(C(F)(F)F)c3)c3c4ccccc4n(C)c3c2=O)cc1	-0.7%	-4.0%
COC(=O)C1(NC(=O)NC2CCCCC2)CCCCC1	-7.9%	-11.1%
COc1ccccc1CNC(=O)c1cccn1-c1nnc(N2CCCC2)s1	-9.7%	-13.0%
COc1ccc(CCN2C(=O)c3[nH]nc(-c4ccccc4O)c3C2c2cccc(O)c2)cc1OC (configuration not stated)	-27.6%	?
COCCNC(=O)/C(C#N)=C\c1ccc(CNS(=O)(=O)c2ccccc2)o1	-5.2%	i
Cc1ccc(C)c(C(=O)CCC(=O)NCc2ccc(Cl)cc2)c1	11.7%	-13.0%
Cc1ccc(CNC(=O)Nc2nnc([C@H]3C[C@H](O)[C@@H](CO)O3)s2)cc1	-4.0%	-3.4%
CC(=O)c1ccc(NC(=O)c2cc(S(=O)(=O)N3CCOCC3)ccc2C)cc1	0.8%	-3.7%
Cc1cc(C)c(C#N)c(N2CCSCC2)n1	-10.3%	-1.9%
Cc1ccc(S(=O)(=O)N2CCOCC2)cc1NC(=O)COC(=O)CCC(=O)c1cccs1	1.4%	-9.3%
CNC(=S)NNC(=O)CSCc1c(Cl)cccc1Cl	-7.5%	-7.9%
Cc1cc(C(=O)NNc2c(Cl)cccc2Cl)n(C(C)(C)C)n1	-9.3%	i
COc1ccccc1NC(=S)N(Cc1ccco1)Cc1cc2cc(C)cc(C)c2[nH]c1=O	-15.2%	-23.6%
CC1(C)CC(=O)C2=C(C1)OC1=C(C(=O)CC(C)(C)C1)C2c1ccccc1Cl	-20.6%	-2.1%
CCOc1ccc(OCCC(=O)N(CC(=O)Nc2ccccc2C(F)(F)F)Cc2ccco2)cc1	-26.7%	?
Oc1c(Cl)cc(Cl)cc1/C=C/c1ccc2cccc(O)c2n1	182.1%[activator]	2.51µM*
Cc1ccc(NC(=O)Cn2cc3c(n2)CCC(C)C3)cc1C (configuration not stated)	-7.8%	4.9%
CCOc1ccccc1N(CC(=O)NCC1CCCO1)C(=O)CCC(=O)Nc1cc(C)on1 (configuration not stated)	-13.7%	-9.0%
O=C(NC1CCN(Cc2ccccc2)CC1)c1ccc(Cn2c(=O)c3ccccc3n(Cc3ccc(F)cc3)c2=O)cc1	?	-7.6%
Cc1cc(C)c(S(=O)(=O)NCCCn2ccnc2)cc1C	-11.7%	-18.7%
O=C(OC1CCOC1=O)c1cncc(Br)c1 (configuration not stated)	20.0%	16.1%
CCc1cc(=O)oc2cc(OCC(=O)N3C[C@H]4C[C@@H](C3)c3cccc(=O)n3C4)c(Cl)cc12	-2.6%	10.8%
O=c1[nH]c2c(-c3nc(-c4ccc(F)cc4)cs3)c(O)cn2c2ccc(Br)cc12	-4.7%	-13.2%
O=C(COC(=O)Cc1ccccc1F)NCCNC(=O)COC(=O)Cc1ccccc1F	-11.5%	i
Cc1nnc(SCC(=O)Nc2sccc2C#N)s1	0.6%	-14.4%
COc1ccccc1N1CCN(C(=O)CCc2nnc3n(C)c(=O)c4sccc4n23)CC1	?	-28.8%
O=C(Cn1c(=O)n(Cc2ccccc2)c(=O)c2sc3ccccc3c21)Nc1ccccc1F	-0.5%	i
CCn1c(O)c(C=NCCN2CCOCC2)c(=O)[nH]c1=S	4.6%[7.34 µM]	-3.5%[7.34 µM]
CCN(CC)c1cc(C)c2cc(NC(=O)c3cccc(F)c3)ccc2n1	-10.6%	-10.3%
CCc1cccc(NC(=O)COc2cc(=O)n(CC)c3ccccc23)c1	-5.2%	-15.9%
More results:
SMILES	Vaccinia Venus	VACV mCherry inh
C=CCN(CC=C)S(=O)(=O)c1ccc(NC(=S)NC(=O)/C=C/c2ccccc2)cc1	-13.1%	nt
NC(=O)C1CCN(c2ncnc3c2c(-c2ccccc2)cn3-c2ccccc2)CC1	?	?
CCOC(=O)/C(=N/Nc1ccccc1)c1csc(Nc2ccccc2)n1	?	?
CC(C)OC(=O)c1c(N)n(Cc2ccco2)c2nc3ccccc3nc12	5.7%	nt
O=C(CCN1C(=O)S/C(=C\c2ccccc2)C1=O)Nc1ccc(S(=O)(=O)Nc2nccs2)cc1	-12.6%	i
CCOc1ccc(C(=O)/C=C/Nc2ccc(S(=O)(=O)Nc3cc(C)nc(C)n3)cc2)cc1	-6.1%	1.2%
Cc1ccc(S(=O)(=O)N(C)C)cc1NC(=O)COC(=O)c1n[nH]c(=O)c2ccccc12	-7.6%	i
CC(C)(C)C1=CC(=O)C(N2CCOCC2)=CC1=O	-12.6%	i
COc1cc(C(=O)N/N=C/c2cn(Cc3cccc(F)c3)c3ccccc23)ccc1O	-6.8%	-14.7%
COc1ccc(N2CC(C)Cn3c2nc2c3c(=O)n(CCc3ccccc3)c(=O)n2C)cc1 (configuration not stated)	-10.9%	-10.2%
CCOc1cc(NC(=S)NCCCN(C)C)c(OCC)cc1NC(=O)c1cccs1	-9.2%	-14.3%
O=[N+]([O-])c1ccc(S(=O)(=O)N2CCn3cccc3C2c2ccccc2F)cc1 (configuration not stated)	?	11.2µM*
c1ccc(-c2cn(-c3ccccc3)c3[n+]2CCCS3)cc1	-19.3%	-9.2%
CCN(CC)c1ccc(/C=C2\C(=O)N(c3nnc(C)c(=O)[nH]3)N=C2C)cc1	-13.9%	-3.0%
CC(OC(=O)CCCSc1nc2ccccc2s1)C(=O)NC(N)=O (configuration not stated)	4.4%	-1.7%
